VDR inhibitor – Inhibitors of the vitamin D receptor (VDR): qHTS. VDR-SRC2-3 peptide fluorescence polarization, 2 h. Potency, µM, for inactives: max response, negative = inhibition, hits mostly inhibitors. 400,000 compounds, 0.93% hits; active = well fitted inhibition curve with a large enough effect; inconclusive = small, poorly fitted or top-dose-only effect, or another doubt; inactive = no such curve, though single readings can be large or run the other way; also: series mostly up to about 120 µM
Target sequence (P11473 whole entry, looked up): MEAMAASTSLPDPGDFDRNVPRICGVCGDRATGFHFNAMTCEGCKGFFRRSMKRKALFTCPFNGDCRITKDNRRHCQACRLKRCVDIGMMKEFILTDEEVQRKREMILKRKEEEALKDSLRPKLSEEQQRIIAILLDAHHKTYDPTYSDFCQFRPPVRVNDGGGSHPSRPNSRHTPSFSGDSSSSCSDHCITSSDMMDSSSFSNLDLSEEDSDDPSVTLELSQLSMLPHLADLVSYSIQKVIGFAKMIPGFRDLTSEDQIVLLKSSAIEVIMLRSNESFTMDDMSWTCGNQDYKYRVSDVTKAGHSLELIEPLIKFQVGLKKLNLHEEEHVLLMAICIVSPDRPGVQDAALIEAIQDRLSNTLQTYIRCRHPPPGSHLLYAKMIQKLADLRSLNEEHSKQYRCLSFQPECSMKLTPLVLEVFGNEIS
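FP read-out; VDR + SRC2-3 coactivator peptide; 23 nl compound by pintool; 2 h RT incubation; reagents held at 4 deg C, protected from light.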
Active calls of the source: *; ? = inconclusive; & = joins results of further samples. % is scaled to controls: 0 for no effect and ±100 for the full control effect; potency is read from the fitted curve at half-maximal effect. A portion of the library (hit frequency here may not be typical).

| entry | VDR inhibitor | smiles |
| --- | --- | --- |
| 1 | -14% | COc1ccc(N2CCN(CCCNC(=O)C3COc4ccc(OC)cc4C3)CC2)cc1 (configuration not stated) |
| 2 | -8% | OCCC1CN(Cc2cccc3c2OCO3)CCN1Cc1ccccc1 (configuration not stated) |
| 3 | 14% | CN(C)CCCN(C(=O)c1cc(-c2cccs2)nc2ccccc12)c1nc2ccc(F)cc2s1 |
| 4 | 11% | CS(=O)(=O)c1ccc2nc(NC(=O)c3ccc(N4CCCC4=O)cc3)sc2c1 |
| 5 | -1% | C/C(=N\NC(=O)CNc1cccc(Cl)c1C)C1CC1 |
| 6 | -1% | CC1CCC(NC(=O)Cn2c(=O)oc3ccccc32)CC1 (configuration not stated) |
| 7 | 2% | O=C(N/N=C/c1ccc(Br)o1)c1cccnc1 |
| 8 | -8% | Cc1ccc2c(c1)C(=O)CCCCC(=O)N2 |
| 9 | 0% | Cc1cc2c(OCC(O)CN3CCCC3)cccc2[nH]1 (configuration not stated) |
| 10 | -1% | CC1=CC(C)(C)N(S(=O)(=O)c2ccc(C)cc2)c2cc(C)ccc21 |
| 11 | 1% | O=C(CCc1ccccc1)n1nc(-c2ccccc2)nc1NCc1ccco1 |
| 12 | 4% | CC1CCCCN1CCNC(=O)C1CCN(S(=O)(=O)N2CCCCC2)CC1 (configuration not stated) |
| 13 | 0% | Cc1cccc(C2c3[nH]c4ccccc4c3CCN2C(=O)c2cc(C(C)C)nc(N)n2)n1 (configuration not stated) |
| 14 | -5% | ON=C1c2ccccc2-c2ccc(F)cc21 |
| 15 | -19% | CCOc1ccc(S(=O)(=O)Nc2ccc(C(=O)N/N=C/c3c(C)nn(-c4ccccc4)c3N3CCCC3)cc2)cc1 |
| 16 | -19% | NNc1nnc2c3cc(F)ccc3n(Cc3ccccc3)c2n1 |
| 17 | -3% | Cn1cnc(S(=O)(=O)Nc2cc(-c3ccc(Cl)cc3)nn2C)c1 |
| 18 | -15% | CCC(=O)N1CCc2cc(S(=O)(=O)CCC(=O)O)ccc21 |
| 19 | -5% | CC(C)(C)C(=O)CSc1nccc(=O)[nH]1 |
| 20 | 6% | CC(C)Cc1nnc(NS(=O)(=O)c2ccc([N+](=O)[O-])cc2)s1 |
| 21 | -9% | Cc1nn(S(=O)(=O)c2ccccc2)c(C)c1S(=O)(=O)N1CCOCC1 |
| 22 | ? | O=C(NCCC(=O)N1CCN(S(=O)(=O)c2ccccc2)CC1)c1ccc(Br)cc1 |
| 23 | -15% | COc1ccc(S(=O)(=O)Nc2cccc3c2O[C@H](CN(C)C(=O)NC(C)C)[C@@H](C)CN([C@H](C)CO)C3=O)cc1 |
| 24 | 10% | COC(=O)c1ccc(NC(=O)C(=O)N2CCN(C(=S)Nc3ccc(C)cc3)CC2)cc1 |
| 25 | 7% | CCOC(=O)c1[nH]c(COC(=O)CCOc2ccccc2OC)c(C(=O)OCC)c1C |
| 26 | 16% | CCOC(=O)C1CCCN(CC(=O)c2c[nH]c3ccc(C)cc23)C1 (configuration not stated) |
| 27 | -8% | CNc1c(NC(=O)COc2ccc(Cl)cc2)c(=O)oc2ccccc12 |
| 28 | 11% | Cc1ccc(NCc2nnc(SCC(=O)c3ccccc3)o2)c(C)c1 |
| 29 | -3% | COc1ccc(CCN2C(=NC(=O)CCC(=O)O)SC3CS(=O)(=O)CC32)cc1OC (configuration not stated) |
| 30 | 8.9µM* | CCOC(=O)/C(=C/c1ccc(OC(F)F)cc1)C1=Nn2c(nnc2-c2ccc(Cl)cc2)SC1 |
| 31 | -4% | COc1ccccc1N1CCN(c2cc(=O)n(-c3ccccc3Cl)c(=O)[nH]2)CC1 |
| 32 | 7% | CS(=O)(=O)N(Cc1ccc(C(=O)NN=C2CCCCCC2)cc1)c1ccccc1 |

Printed as active in VDR inhibitor, of those listed so far:
| entry | VDR inhibitor | smiles |
| --- | --- | --- |
| 30 | 8.9µM* | CCOC(=O)/C(=C/c1ccc(OC(F)F)cc1)C1=Nn2c(nnc2-c2ccc(Cl)cc2)SC1 |

Exported with tabs: part of the list above.
cpd	Structure	VDR inhibitor
26	CCOC(=O)C1CCCN(CC(=O)c2c[nH]c3ccc(C)cc23)C1 (configuration not stated)	16%
27	CNc1c(NC(=O)COc2ccc(Cl)cc2)c(=O)oc2ccccc12	-8%

Additional records follow:
| entry | VDR inhibitor | smiles |
| --- | --- | --- |
| 33 | 2% | CCOC(=O)C1=C(C)NC(=O)NC1c1ccc(N2CCC(c3ccccc3)=N2)cc1 (configuration not stated) |
| 34 | 9% | COc1ccc(C(=O)N(Cc2ccco2)Cc2ccco2)cc1 |
| 35 | -6% | CC1(C)Cc2ccccc2-c2c1c(=O)n(Cc1ccccc1)c1nnnn21 |
| 36 | -22% | CCOc1ccc(OCC(=O)N2CCOCC2)cc1 |
| 37 | -14% | CN(C)c1nnnn1-c1ccc(OC(F)(F)F)cc1 |
| 38 | -7% | CCC(=O)c1ccc(OCC(=O)Nc2ccc(S(=O)(=O)Nc3cc(C)nc(C)n3)cc2)cc1 |
| 39 | -7% | COc1ccc(CN(C)C(=O)C2CCN(S(=O)(=O)c3cccs3)CC2)cc1F |
| 40 | ? | CNc1ccc(S(=O)(=O)NCC(=O)NCCCc2ccccc2)cc1[N+](=O)[O-] |

6 of the entries above in order of the VDR inhibitor value, lowest first.
#	compound	VDR inhibitor
36	CCOc1ccc(OCC(=O)N2CCOCC2)cc1	-22%
37	CN(C)c1nnnn1-c1ccc(OC(F)(F)F)cc1	-14%
38	CCC(=O)c1ccc(OCC(=O)Nc2ccc(S(=O)(=O)Nc3cc(C)nc(C)n3)cc2)cc1	-7%
35	CC1(C)Cc2ccccc2-c2c1c(=O)n(Cc1ccccc1)c1nnnn21	-6%
33	CCOC(=O)C1=C(C)NC(=O)NC1c1ccc(N2CCC(c3ccccc3)=N2)cc1 (configuration not stated)	2%
34	COc1ccc(C(=O)N(Cc2ccco2)Cc2ccco2)cc1	9%

Following part
| entry | VDR inhibitor | smiles |
| --- | --- | --- |
| 41 | 12% | N#C/C(=C\c1ccncc1)c1ccc(NC(N)=O)cc1 |
| 42 | 5% | CCC(CC)c1nc(NCCC(=O)O)c2ccccc2n1 |
| 43 | -13% | CCCCC(c1nnnn1Cc1ccco1)N1CCN(C(=O)c2ccco2)CC1 (configuration not stated) |
| 44 | 2% | COc1ccc(Cc2nnc(NC(=O)c3c(-c4ccccc4)noc3C)s2)cc1 |
| 45 | 15% | Cc1ccc(/C=N/NC(=O)NC2CCCCC2)o1 |
| 46 | 1% | CCS(=O)(=O)c1ccc2oc(Nc3ccc(OC)c(OC)c3)nc2c1 |
| 47 | 1% | Cc1ccnc(SCCn2c(N3CC(C)CC(C)C3)nc3c2c(=O)n(C)c(=O)n3C)n1 (configuration not stated) |
| 48 | 28µM* | COc1ccc(NC(=O)CSc2nnc(C3CC3)n2C)cc1 |
| 49 | 13% | Cn1c(CNC(=O)c2ccco2)nnc1SCC(=O)Nc1ccc(Cl)cc1 |
| 50 | 12% | O=C(Nc1cc2c3c(c1)CC(=O)N3CCC2)c1ccc(F)cc1 |
| 51 | -16% | O=C(NCCN1CCCCC1)c1ccc(/C=N/O)nc1 |
| 52 | 18% | Cc1ccc(S(=O)(=O)N2CCC(C(=O)NNC(=O)c3ccccc3)CC2)cc1 |
| 53 | -6% | CCCc1nccn1S(=O)(=O)c1cc(OC)ccc1OC |
| 54 | -7% | CCc1ccc(OCC(=O)Nc2nnc(C3CCCC3)s2)cc1 |
| 55 | -5% | COc1ccc(-c2csc(-n3cccn3)n2)cc1 |
| 56 | 4% | COc1ccc(-n2c(SCC(=O)Nc3cc(C)cc(C)c3)nc3c(oc4ccccc43)c2=O)cc1 |
| 57 | 0% | C[C@@H]1Oc2ccccc2C=C1/C=C/C(=O)O |
| 58 | 17% | O=C(CCS(=O)(=O)Cc1ccccc1F)NCCCN1CCCCC1 |
| 59 | 6% | Fc1ccc(-n2nnc(-c3ccccc3Cl)n2)cc1 |
| 60 | -4% | CCOC(=O)C1CCN(c2ncnc3c2c(-c2ccccc2)cn3-c2ccc(C)c(Cl)c2)CC1 |
| 61 | -4% | Cc1cc(C)c2c(C)c(C(=O)NCc3ccncc3)oc2c1 |
| 62 | 2% | COc1ccc(-n2ncc3c(N4CCC(C(N)=O)CC4)ncnc32)cc1 |
| 63 | -22% | O=[N+]([O-])c1ccc(N2CCN(S(=O)(=O)c3ccc(Cl)cc3)CC2)cc1NCc1cccnc1 |
| 64 | -16% | Cc1cn(S(=O)(=O)c2ccccc2[N+](=O)[O-])cn1 |
| 65 | -10% | CN1CCN(c2nc3c(c(=O)[nH]c(=O)n3C)n2Cc2ccc([N+](=O)[O-])cc2)CC1 |
| 66 | ? | CCS(=O)(=O)c1ncc(Cl)c(C(=O)Nc2ccc(S(=O)(=O)N3CCCC(C)C3)cc2)n1 (configuration not stated) |
| 67 | -9% | Cc1cccc(N(C)S(=O)(=O)c2ccc3c(c2)CCC(=O)N3)c1 |
| 68 | 5% | CC(C)NC(=O)c1ccc(-c2cccc(C(F)(F)F)c2)o1 |
| 69 | 7% | CC(O)CNc1nc(Cl)c(C#N)s1 (configuration not stated) |
| 70 | 4% | COC(=O)c1cc2c(C)nn(C)c2s1 |
| 71 | -11% | CC(=O)Nc1ccc(NC(=O)c2ccc(NS(=O)(=O)c3cc(C(C)(C)C)cc(C)c3C)cc2)cc1 |
| 72 | 0% | O=C(CNCC1CCCO1)Nc1ccc(N2CCCCCC2)cc1 (configuration not stated) |
| 73 | -4% | COc1cc(/C=C2\CC/C(=C\c3ccc(OCCO)c(OC)c3)C2=O)ccc1OCCO |
| 74 | 19% | COc1ccc(CCN(C)Cc2c(O)ccc3cc(Br)ccc23)cc1OC |
| 75 | 6% | Cc1cccc(NC(=O)CSc2nc3ccc(NC(=O)c4ccccc4)cc3s2)c1 |
| 76 | -12% | Nc1nc(N2CCN(C(=O)c3ccco3)CC2)nc2ccc(Br)cc12 |
| 77 | ? | CCOc1cc(C=C(C#N)C#N)ccc1Oc1ccc([N+](=O)[O-])cn1 |
| 78 | 6% | CCc1ccc(/C=C2/SC(=S)N(CC(=O)Nc3nc4ccccc4s3)C2=O)cc1 |
| 79 | 19% | CC(C)OC(=O)CCC1(C(=O)O)CCC(=O)NC1 (configuration not stated) |
| 80 | 12% | Cc1ccc(OCC(=O)N(Cc2sccc2C)C2CCS(=O)(=O)C2)cc1 (configuration not stated) |
| 81 | 8% | COc1cc2oc(=O)c(CC(=O)N3CCCCC3)c(C)c2cc1OC |
| 82 | 18% | Cc1nn(CC(=O)NCc2cccc(Br)c2)c(=O)c2c1sc1ccccc12 |
| 83 | -13% | CCCCN1C[C@H](Cc2ccccc2)[C@@H](CC(=O)NCc2ccc(OC)cc2)C1=O |
| 84 | 11% | CC(C)CN(C1CCS(=O)(=O)C1)S(=O)(=O)c1ccc2ccccc2c1 (configuration not stated) |
| 85 | -15% | O=C(COC(=O)c1cccc(Cl)c1)Nc1cc(Cl)ccc1Oc1ccccc1 |
| 86 | -18% | CCC(CC)NC(=O)CN1CCN(S(=O)(=O)c2cccs2)CC1 |
| 87 | -17% | Clc1cccc(-c2ccc(C=Nc3ccc(N4CCOCC4)cc3)o2)c1 |
| 88 | -13% | Cn1c(SCC(=O)c2ccccc2)ncc(C(=O)Nc2ccccc2)c1=O |

Gathered by group: the entries above containing a cyano group.
| entry | VDR inhibitor | smiles |
| --- | --- | --- |
| 41 | 12% | N#C/C(=C\c1ccncc1)c1ccc(NC(N)=O)cc1 |
| 69 | 7% | CC(O)CNc1nc(Cl)c(C#N)s1 (configuration not stated) |
| 77 | ? | CCOc1cc(C=C(C#N)C#N)ccc1Oc1ccc([N+](=O)[O-])cn1 |

Next results.
| entry | VDR inhibitor | smiles |
| --- | --- | --- |
| 89 | ? | Cc1ccc2[nH]c(=O)c(CN(Cc3ccco3)Cc3nnnn3Cc3ccccc3)cc2c1 |
| 90 | 13% | O=C(Nc1ccc(F)c(Cl)c1)N1CCN(C(=O)c2nsc3ccccc23)CC1 |
| 91 | ? | O=C(Nc1cc(S(=O)(=O)N2CCOCC2)ccc1N1CCCC1)c1ccc(Cl)cc1 |
| 92 | 14% | Cc1ccccc1N1CCN(S(=O)(=O)c2nnc(NC(=O)c3ccco3)s2)CC1 |
| 93 | 3% | CC(=O)c1ccccc1NS(=O)(=O)c1c(C)nn(-c2ccccc2)c1C |
| 94 | 8% | CC(=O)c1ccc(NC(=O)CN(C)S(=O)(=O)c2cnc[nH]2)cc1 |
| 95 | -2% | COc1cc(OC)cc(C(=O)NCCNC(=O)c2ccccn2)c1 |
| 96 | 29% | O=[N+]([O-])c1cccc(NN=Nc2ccccc2)c1 |
| 97 | -3% | COc1ccc(C2=NS(=O)(=O)N(C)C(C(=O)NCc3ccc4c(c3)OCO4)=C2)cc1 |
| 98 | 9% | Cc1ccc(C)c(NC(=O)CSc2ccc(S(=O)(=O)N3CCCC3)cn2)c1 |
| 99 | 3% | CCOCCCNC(=S)NCCNc1nc2c(C)cccc2cc1C#N |
| 100 | -19% | CCc1ccc(CCC(=O)Nc2ccc(C(=O)O)cc2)o1 |
| 101 | -13% | FC(F)(F)c1cccc(-n2c(Cn3nnc4ccccc43)n[nH]c2=S)c1 |
| 102 | 11µM* | CCOC(=O)C1=NO[C@@]2(C=C(Br)C(=O)[C@H]3O[C@H]32)C1 |
| 103 | -1% | O=C1CN(C(=O)C2CC2)c2ccccc2N1 |
| 104 | 1%&9% | CCCCCCCCCCCCC/C=C/[C@@H](O)[C@H](CO)N(C)C |

High-throughput results: PubChem BioAssay, National Center for Advancing Translational Sciences (NCATS)
